NPYLR7 agonist: activates Aedes aegypti NPYLR7 receptor | activation, % at 10 µM | AID 1259423 | HEK293T NPYLR7/Galpha15, GCaMP6s calcium fluorescence | actives 0.15% (n = 270,000); in the data active = activation above about 40%;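 also: 0% = vehicle and 100% = reference agonist at the receptor; some compounds past the cut are filed as inactive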
NPYLR7 agonist max-min: recorded beside NPYLR7 agonist, whose call it bears; activation, %; measured here: Max-Min RFU normalised activation; some inactives read as strong as hits;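 span of the calcium signal over five minutes; 0% = vehicle and 100% = native peptide agonist; compound fluorescence can raise it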
The depositor's hits bear a star; & = joins results of further samples. Not all compounds are listed; rates above refer to the full screens.

Every second line gives: NPYLR7 agonist, NPYLR7 agonist max-min
CCOC(=O)c1ccccc1NC(=O)CSc1nc2c(-c3ccccc3)c[nH]c2c(=O)n1C1CC1
  2, 1
CC(C)Cc1ccc(CN2CCCC(NC(=O)CCc3ccncc3)C2)cc1 (stereo not given)
  16, 6
CC(C)Sc1ccc(C(C)NC(=O)C2CCOC2)cc1 (stereo not given)
  3, 3
CCCCC(CC)C(=O)Nc1ccc(-n2nc(OC(C)C)nc2-c2cccc(F)c2)cc1 (stereo not given)
  -3, 4
O=C1CCc2cc(-c3cccc4ccnn34)ccc21
  11, 9
O=C1CCCN1c1ccc(CN2C(=O)c3cc(Br)ccc3S2(=O)=O)cc1
  4, 4
CCCC(=O)Nc1c(C)nc2ccc(C)cn2c1=O
  -1, -1
CCCc1cnc(-c2ccc(C)c3ncccc23)nc1
  5, 5
CCCCCCn1c(SCc2cc(=O)n(C)c(=O)n2C)nc2ccccc2c1=O
  7, 11
CCOC(=O)N1CCC(N2CCN(CC3CCCCC3)C(CCO)C2)CC1 (stereo not given)
  11, 7
Fc1ccc(-n2c(-c3ccncc3)n[nH]c2=S)cc1
  3, 14
COc1ccc(OC)c(C2CCCN2Cc2cc(C#N)ccc2F)c1 (stereo not given)
  9, 6
COc1cccc(C(=O)N2CCC(Cc3nncn3C)CC2)c1OC
  8, 7
O=C(c1cc2n(n1)CCN(C(=O)C1COCCO1)C2)N1CCCC1 (stereo not given)
  1, 1
COc1ccc(-c2cn3c(C(=O)N4C[C@H]5CC[C@@H](C4)N5)csc3n2)cc1F
  1, -2
CCOC(=O)c1c(C)oc(N)c1C#N
  0, -1
COCCN(Cc1cnn(C)c1)C(=O)c1c(F)ccc(OC)c1F
  3, -3
Cc1ccc(C)c(NC(=O)COc2coc(CN3c4ccccc4CC3C)cc2=O)c1 (stereo not given)
  2, 0
CCOCCCN(CC(=O)N(Cc1cccn1Cc1ccccc1)C1CCCCC1)C(=O)C1CC1
  -6, -4
O=C(NCC1CC1)[C@@]1(OCc2ccc(F)cc2)CC(OCc2cccc(F)c2F)[C@H](O)[C@H](O)C1 (stereo not given in full)
  -2, 10
CCCCn1c(=N)n(CC(O)c2ccc(OC)cc2)c2ccccc21 (stereo not given)
  1, 15
CCn1cc2nc(OC)c(CNC(=O)Cc3cc(C)no3)cc2c1O
  6, -3
Cc1ccc(S(=O)(=O)N2CCN(C(=O)c3cn[nH]c3C)CC2)cc1
  -3, -4
Cc1cn2c3c(=O)[nH]c(=O)n(C)c3nc2n1-c1ccc(Cl)cc1
  5, 4
CC1Oc2ccc(-c3cccc(F)c3)cc2N(CCO)C1=O (stereo not given)
  6, 2
C=CCNCc1nccn1Cc1cc(C)ccc1C
  10, 13
Cc1ccccc1C(=O)NC(C(=O)N1CCCC1)C1CCN(C(=O)c2ccc(Cl)cc2)CC1 (stereo not given)
  16, 17
Cn1cc(NC(=O)C2(c3cccc(Cl)c3)CCC2)cn1
  0, 0
Cc1ccc(OCC(=O)N2CC(C(N)=O)Oc3ccccc32)c(C)c1 (stereo not given)
  0, 1
Oc1c(Cl)cc(Cl)cc1C=NNc1nc2ccccc2s1
  5, 0
CCn1c(C2CCN(C(=O)c3cc4c(C)cccc4n3C)CC2)n[nH]c1=O
  11, 8
Cc1nn(-c2ccccc2)c2nc(Cc3ccccc3)nc(N3CCN(C(=O)c4cccc(Br)c4)CC3)c12
  -5, 0
Cc1ccc(-c2ccc(N)nc2)c2cccnc12
  2, -1
Cc1nc2n(n1)C(=O)C(C(c1cccc(Br)c1)N1CCC(C(N)=O)CC1)S2 (stereo not given)
  -7, -11
Cc1cc(NC(=O)C2(C)CCN2C(=O)c2ccc(C(C)(C)C)cc2)no1 (stereo not given)
  10, 7
CCOC(=O)N1CCC(NCCC(=O)N2CCc3ccccc3C2)CC1
  5, 4
CCOc1ccc2ccccc2c1C(=O)N1CCN(c2ncnc3c2nnn3C)CC1
  1, 9
COc1ccccc1CNC(=O)C1CCN(c2ncnc3c2sc2ncccc23)CC1
  -1, -3
Cc1ccnc(SCCn2c(N3CCOCC3)nc3c2c(=O)[nH]c(=O)n3C)n1
  5, 3
O=C(Cc1ccccc1)OCC(=O)N1CCc2ccccc21
  1, -3
CCC1COCCN1C(=O)NC1CCCCC1n1cccn1 (stereo not given)
  -18, -20
COc1ccccc1OCC(=O)N(C)Cc1cn[nH]c1-c1ccc(F)cc1
  7, 5
Cc1cc2nc(N(CCCN3CCOCC3)C(=O)c3ccc(S(C)(=O)=O)cc3)sc2cc1C
  -4, -6
CCOC(=O)c1cc(-c2ccc(CC)cc2)n(-c2ccc(C(=O)NCc3cccs3)cc2)n1
  6, 4
c1ccc(OCCn2c3ccccc3c3nc4ccccc4nc32)cc1
  -1, 0
COc1ccccc1C1CCCN1C(=O)CCC1(Cc2ccc(C)cc2)CCC(=O)N1 (stereo not given)
  3, 3
COCC(=O)Nc1cccc(C(=O)N2CCC3(CCCN(C)C3=O)C2)c1 (stereo not given)
  10, 1
CCC(C(=O)NCC1CCN(c2nc(Cc3cccc(OC)c3)ns2)CC1)c1ccccc1 (stereo not given)
  12, 10
COCCCNC(=O)C(=O)Nc1ccc(C)cc1C
  13, 11
Cc1cccc(NC(=O)CNC2CCN(Cc3ccccc3)C2)c1C (stereo not given)
  10, 5
CCC(C)N(Cc1ccc(N(CC)CC)cc1OS(=O)(=O)CC)C(=O)c1cccc(F)c1 (stereo not given)
  26, 25
Cc1ccc(NC(=O)C2CCCN2S(C)(=O)=O)c(C)c1 (stereo not given)
  4, 0
COc1ccc(-n2c(-c3ccc(Cl)cc3)cc(C(=O)NCCN3CCOCC3)c2C)cc1
  -9, 5
Cc1cc(C)cc(C(=O)N2CCc3c(sc4ncnc(N)c34)C2)c1
  -3, -3
C#Cc1ccc(NC(=O)C2(C)CCN2C(=O)C2(c3ccccc3)CCCC2)cc1 (stereo not given)
  1, 12
CCOc1nn(CC)cc1C(=O)N1CCC(C(=O)OC)CC1
  3, 1
CCn1nc(C(=O)N2CCCCCC2)c2c1CCC(N1CCOc3ccc(Cl)cc3C1)C2 (stereo not given)
  8, 3
CCc1[nH]c2ccc(CNC(=O)C3CCCCCN3C)cc2c1C (stereo not given)
  -4, -1
CN(Cc1cnc2ccccc2n1)C(=O)C1CC2(CCNCC2)CN1 (stereo not given)
  58*, 61*
CN(CCOc1ccc(Cl)cc1)C(=O)Cn1cnc2ccccc2c1=O
  7, 2

Copied from the list:
Entry for `CCOC(=O)N1CCC(NCCC(=O)N2CCc3ccccc3C2)CC1` under NPYLR7 agonist max-min: 4
Entry for `CCOC(=O)c1cc(-c2ccc(CC)cc2)n(-c2ccc(C(=O)NCc3cccs3)cc2)n1` under NPYLR7 agonist max-min: 4

(continued)
Compound	NPYLR7 agonist	NPYLR7 agonist max-min
Cn1c(=S)[nH]c2cc3ccccc3cc2c1=O	2	-3
NCCCCCC(=O)O	-9&19&1	-13&18&-3
CCC(C(=O)N1CCOCC1)n1c(=O)n(-c2cccc(OC)c2)c(=O)c2ccc(Cl)cc21 (stereo not given)	3	18
COc1cccc(CN2C(=O)C3(SCCN3C(=O)c3cccs3)c3cc(C)ccc32)c1 (stereo not given)	3	7
COc1cc(=O)n(-c2ccc(F)cc2)nc1C(=O)NCc1ccccc1Cl	7	2
CC(=O)Nc1ccc(NC(=O)CSc2nc(=O)n(CCO)c3c2CCCC3)cc1	-6	-16
Cc1nc2cc(NC(=O)C3(C)CCCN3C)ccc2o1 (stereo not given)	4	2
Cc1ccccc1-c1cccc(CN2CCN(C3CCN(C(C)C)CC3)C(CCO)C2)c1 (stereo not given)	4	-4
Cc1ccc2oc(-c3ccc(NC(=O)c4ccccc4F)c(C)c3)nc2c1	1	7
Cc1cc(C)c2oc(=O)n(C3CCN(C(=O)c4ccc5c(c4)OCO5)CC3)c2c1	2	-2
Cc1ccc(C(N)=O)c(-c2ccc(C(C)N(C)C)cc2)n1 (stereo not given)	0	3
N#Cc1ccc(Nc2cc3c(cn2)ncn3CC2CC2)cc1	18	12
C=CCn1cc(C(=O)N2CCN(C)CC2)c2nn(-c3ccccc3)c(=O)c-2c1	8	5
O=C(C1CCC1)N1C2CCC(O)(CC2)C1CN1CCOCC1 (stereo not given)	3	14
CC(C)CN(c1cccc(O)c1)S(=O)(=O)c1ncn(C)c1Cl	1	-1
CN1CCN(c2sc(S(C)(=O)=O)nc2S(=O)(=O)c2ccc(Cl)cc2)CC1	3	1
Cc1cc(C)cc(SCc2ccc(C(=O)N3C4CCC3CC(Oc3cccc(C(F)(F)F)c3)C4)cc2)c1 (stereo not given)	8	-2
FC(F)Oc1ccc(Br)cc1C=C1CCC=C1N1CCOCC1	-6	-11
Clc1ccc(-c2cn(-c3ccccc3)c3[n+]2CCCS3)c(Cl)c1	5	7
CNC(=O)C(C)S(=O)(=O)Cc1nnnn1Cc1ccccc1 (stereo not given)	6	2
COCc1c(Br)c(C)nc(OCC(=O)N/N=C\c2cc(Br)c(OC)cc2OC)c1C#N	20	25
Cc1nc(-c2cccnc2)[nH]c(=O)c1CC(=O)NCC#Cc1ccccc1	14	10
CC[C@@H](C(=O)C(C)[C@@H](O)[C@H](C)CCc1ccc(C)c(O)c1C(=O)O)C1OC(CC)(C2CC[C@](O)(CC)[C@H](C)O2)C[C@@H]1C (stereo not given in full)	-13	-17
c1csc(CCNc2nnc(SC3CCCC3)s2)c1	1	-1

Some of these compounds in order of SMILES length, low to high:
Compound	NPYLR7 agonist	NPYLR7 agonist max-min
c1csc(CCNc2nnc(SC3CCCC3)s2)c1	1	-1
FC(F)Oc1ccc(Br)cc1C=C1CCC=C1N1CCOCC1	-6	-11
CNC(=O)C(C)S(=O)(=O)Cc1nnnn1Cc1ccccc1 (stereo not given)	6	2
COCc1c(Br)c(C)nc(OCC(=O)N/N=C\c2cc(Br)c(OC)cc2OC)c1C#N	20	25
Cc1cc(C)cc(SCc2ccc(C(=O)N3C4CCC3CC(Oc3cccc(C(F)(F)F)c3)C4)cc2)c1 (stereo not given)	8	-2
CC[C@@H](C(=O)C(C)[C@@H](O)[C@H](C)CCc1ccc(C)c(O)c1C(=O)O)C1OC(CC)(C2CC[C@](O)(CC)[C@H](C)O2)C[C@@H]1C (stereo not given in full)	-13	-17

Additional entries
Compound	NPYLR7 agonist	NPYLR7 agonist max-min
CCOC(=O)C1(C)CCCCN1C(=O)c1ccco1 (stereo not given)	-2	-3
CCN=c1scc(-c2ccc(OC)cc2OC)n1/N=C1\CC(C)CC(C)(C)C1 (stereo not given)	3	-3
Cc1cc2oc(=O)cc(CSc3nncs3)c2cc1C(C)C	-1	-6
COc1ccc(OC)c(NC(=NS(=O)(=O)c2ccc(C)cc2)Nc2nc(C)cc(C)n2)c1	-1	-9
CCCn1cc(C(=O)N2CCNCC2C(=O)N2CCOCC2)c(C)n1 (stereo not given)	11	6
O=C(CN1CCC2(CC1)c1ccccc1CC2O)N1CCOc2ccccc21 (stereo not given)	3	0
Cc1noc(C)c1S(=O)(=O)NC(=O)C1(C)CCN1C(=O)Cc1ccc(C(C)C)cc1 (stereo not given)	-2	-7
CC(C)OCCCNc1c2c(nc3ncnn13)CCC2	18	10
COc1cc(OC)cc(C(=O)OC(C)C(=O)NC(C)c2ccc(F)cc2)c1 (stereo not given)	9	3
CC(NC(=O)c1cc(N)ccc1N1CCCC1)c1ccccc1 (stereo not given)	-1	0
O=C(C(Cl)Cl)N1CCC(Cc2ccc(F)cc2)CC1	4	5
CC(C)C(=O)Nc1ccc(-c2nnnn2C2CC2)cc1	2	4
O=C(c1ccco1)N1N=C(c2ccc3c(c2)OCO3)CC1c1ccco1 (stereo not given)	2	13
CC(C)(C)CN1CCCC2(CCN(C(=O)c3cn4cc(Cl)ccc4n3)C2)C1 (stereo not given)	5	2
C=CCNC(=O)NC(=O)CSc1nnc(-c2ccc(Cl)cc2)o1	-4	-9
N#Cc1cccc(NC(=O)CCc2ccccc2F)c1	0	1
CN(Cc1ccccc1F)S(=O)(=O)c1ccc(F)c2ncccc12	-13	-14
COc1ccc(-c2nc3ccc(C)cn3c2NC(=O)c2cccc(Cl)c2)cc1OC	-5	-3
COc1ccc(F)c(-c2nc(CN3CCCCC3c3nc4ccccc4[nH]3)c(C)o2)c1 (stereo not given)	6	2
COC(=O)C1=C(C)N(C)C(=O)NC1c1ccc(OC)c(Br)c1 (stereo not given)	-5	-11
CCOC(=O)c1nc2ccccc2nc1N1CCCN(C(=O)c2cccc(C#N)c2)CC1	3	-3
CCc1cnc(C)nc1N1CCCC(C(=O)c2ccc(OC)c(OC)c2)C1 (stereo not given)	-1	27
CC(C)(C)c1ccc(Cc2nnc(SCc3cccc(F)c3)[nH]c2=O)cc1	8	7
C=c1ccc(F)cc1=C1N=C(OC)N=C(OC)N1	1	19
Cc1ccsc1C(=O)N1CCCC(CO)(Cc2ccccc2)C1 (stereo not given)	11	4
COc1ccc(-c2csc3nc(C)nc(NC4CC4)c23)cc1OC	2	2
O=c1oc2ccc3ccccc3c2cc1-c1nnc(-c2ccccc2)o1	-6	-9
O=C(c1ccc(NC(=O)C2(c3cccc(F)c3)CCC2)cc1)N1CCCC1	11	4
CCOC(=O)[C@@H]1[C@@H](OC)C(=O)N(C)C12CCN(C(=O)c1ccc3c(c1)OCCCO3)CC2	26	24
COCCNC(=O)C1CCCN(C2CCN(c3nccnc3C)CC2)C1 (stereo not given)	26	16
Cc1cc(C)cc(-n2nc(C)c(Br)c2N)c1	0	0

In the list so far, these contain bromine.
Compound	NPYLR7 agonist	NPYLR7 agonist max-min
O=C1CCCN1c1ccc(CN2C(=O)c3cc(Br)ccc3S2(=O)=O)cc1	4	4
Cc1nn(-c2ccccc2)c2nc(Cc3ccccc3)nc(N3CCN(C(=O)c4cccc(Br)c4)CC3)c12	-5	0
Cc1nc2n(n1)C(=O)C(C(c1cccc(Br)c1)N1CCC(C(N)=O)CC1)S2 (stereo not given)	-7	-11
FC(F)Oc1ccc(Br)cc1C=C1CCC=C1N1CCOCC1	-6	-11
COCc1c(Br)c(C)nc(OCC(=O)N/N=C\c2cc(Br)c(OC)cc2OC)c1C#N	20	25
COC(=O)C1=C(C)N(C)C(=O)NC1c1ccc(OC)c(Br)c1 (stereo not given)	-5	-11
Cc1cc(C)cc(-n2nc(C)c(Br)c2N)c1	0	0
